Vaccinia inh: blocks a specific stage of Vaccinia orthopoxvirus infection, primary screen, cell-based, single point | hit rate 0.01% among 89,000 | AID 1053133, 2014 | activity change (mCherry), % (test concentration not listed) | Vaccinia-infected cells, mCherry/Venus stage reporter fluorescence; active compounds read low; some inactives read as strong as hits;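 active means mCherry past -33% and 40 or more points under the early reporter, replicates agreeing; inconclusive means past -33% without that gap or agreement; tested in A549 cells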;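 further: scaled between vehicle wells and reference inhibitor wells; 23 nL library stock went into each well; one replicate is shown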
Vaccinia inh Venus: second read-out of Vaccinia inh, no call of its own (marks repeat the call); activity change (Venus), %; measured here: Venus reporter, other viral stage;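 negative = less Venus signal; first of two replicates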
Active calls of the source: *; u = inconclusive; x = no result given. These rows are one share of the data. The share of hits here may be higher or lower than overall.

SMILES	Vaccinia inh	Vaccinia inh Venus
COc1ccc(S(=O)(=O)Nc2ccc3c(c2)C(=O)N([C@H](C)CO)C[C@H](C)[C@H](CN(C)CC2CCCCC2)O3)cc1	-3	2
CCCNC(=O)N1C[C@H](C)[C@H](OC)CN(C)C(=O)c2cc(NS(=O)(=O)CC(F)(F)F)ccc2OC[C@@H]1C	3	2
Cc1ccc(S(=O)(=O)Nc2ccc3c(c2)CC(=O)N([C@@H](C)CO)C[C@@H](C)[C@H](CN(C)C(=O)Nc2ccc(F)cc2)O3)cc1	-9	-10
COc1ccccc1C#Cc1ccc([C@@H]2[C@@H](CO)N3CCCCN(CCC(F)(F)F)C[C@@H]23)cc1	u	x
CO[C@H]1CN(C)C(=O)c2cc(NC(=O)C3CCCC3)ccc2OC[C@H](C)N(C)C[C@H]1C	-4	-5
COc1ccc(CN(C)C[C@@H]2OCCCC[C@@H](C)Oc3ccc(NS(=O)(=O)c4ccc(F)cc4)cc3C(=O)N([C@@H](C)CO)C[C@H]2C)cc1	u	x
CC=Cc1ccc2n(c1=O)C[C@@H]1[C@@H](CO)[C@H](C(=O)N[C@@H](C)c3ccccc3)[C@H]2N1CC (mixture of isomers)	0	3
C[C@H]1CN([C@@H](C)CO)C(=O)Cc2cc(NS(=O)(=O)c3ccccc3)ccc2O[C@@H]1CN(C)C(=O)Nc1cccc2ccccc12	10	5
C[C@H](CO)N1C[C@H](C)[C@H](CN(C)CC2CC2)OCCCC[C@H](C)Oc2ccc(NC(=O)Cc3ccccc3)cc2C1=O	-3	-15
Cc1ccc(NC(=O)Nc2ccc3c(c2)C(=O)N(C)[C@@H]2CC[C@H](CC(=O)NCC(F)(F)F)O[C@@H]2CO3)cc1	-28	-19
C[C@H](CO)N1C[C@H](C)[C@H](CN(C)C(=O)Nc2ccc(C(F)(F)F)cc2)Oc2ccc(NC(=O)C3CCCCC3)cc2CC1=O	0	2
C[C@H](CO)N1C[C@H](C)[C@@H](CN(C)C(=O)Nc2ccccc2)Oc2c(NC(=O)Nc3ccccc3)cccc2C1=O	5	8
COCC#Cc1ccc2c(c1)O[C@H](CN(C)Cc1ccccn1)[C@@H](C)CN([C@H](C)CO)S2(=O)=O	-3	-1
C[C@@H]1CN([C@H](C)CO)C(=O)c2cc(NC(=O)c3ccccc3)ccc2O[C@@H](C)CCCCO[C@@H]1CN(C)C(=O)Nc1cccc2ccccc12	8	11
CN(C)C(=O)c1cccc(-c2cccc(-c3nc(C(=O)NC4CCCCC4)cc4c3[C@H](CCO)N([S@@](=O)C(C)(C)C)C4)c2)c1	u	x
C[C@@H]1CN([C@@H](C)CO)C(=O)c2cc(NC(=O)Nc3ccc4c(c3)OCO4)ccc2O[C@@H]1CN(C)S(=O)(=O)c1cccs1	-6	5
CCNC(=O)C[C@H]1CC[C@@H]2[C@H](COC[C@@H](O)CN2C(=O)Nc2c(C)noc2C)O1	17	6
C[C@@H]1CCCCO[C@@H](CN(C)C(=O)Nc2ccc(F)cc2)[C@H](C)CN([C@@H](C)CO)C(=O)c2cc(NC(=O)C3CCCCC3)ccc2O1	5	6
C[C@H](CO)N1C[C@H](C)[C@@H](CN(C)C(=O)NC2CCCCC2)OCCCC[C@H](C)Oc2ccc(NC(=O)CCCN(C)C)cc2C1=O	7	4
CN1[C@@H]2c3ccc(-c4cccc(F)c4)c(=O)n3C[C@@H]2[C@@H](CO)[C@@H]1C(=O)NC1CCCC1	-7	-12
C[C@@H]1CCCCO[C@H](CN(C)C(=O)Nc2cccc3ccccc23)[C@H](C)CN([C@@H](C)CO)C(=O)c2cc(NC(=O)c3ccccc3)ccc2O1	-19	-4
CC=Cc1ccc2n(c1=O)C[C@H]1[C@H](CO)[C@@H](C(=O)NCC)[C@@H]2N1S(=O)(=O)c1cn(C)cn1 (mixture of isomers)	0	-6
CCC(=O)N1C[C@@H](C)[C@H](OC)CN(C)C(=O)c2cc(NC(=O)NC3CCCC3)ccc2OC[C@@H]1C	13	16
C[C@H](CO)N1C[C@H](C)[C@H](CN(C)Cc2ccc3c(c2)OCO3)OCCCC[C@H](C)Oc2ccc(NS(=O)(=O)c3ccc(Cl)cc3)cc2C1=O	u	x
C[C@@H]1CN([C@H](C)CO)C(=O)c2cccc(NC(=O)Nc3cccc4ccccc34)c2O[C@@H]1CN(C)Cc1ccc(C(F)(F)F)cc1	35	20
C[C@H](CO)N1C[C@H](C)[C@H](CN(C)CC2CC2)Oc2ccc(NC(=O)CCN3CCOCC3)cc2CC1=O	9	0
COc1ccc(C#Cc2ccc([C@H]3[C@H](CO)N4CCCCN(C(=O)Nc5ccc(F)cc5)C[C@@H]34)cc2)cc1	u	x
O=C(N[C@@H]1CC[C@H](CC(=O)N2CCc3ccccc3C2)O[C@@H]1CO)C1CC1	11	7
C[C@H](CO)N1C[C@H](C)[C@H](CN(C)Cc2ccc(Cl)c(Cl)c2)Oc2ccc(NC(=O)C3CCCCC3)cc2CC1=O	u	x
C[C@H](CO)N1C[C@H](C)[C@H](CN(C)CC2CC2)Oc2ccc(NC(=O)CCCCCC(=O)Nc3ccccc3N)cc2CC1=O	-19	-18

Another view of part of the listing above.
> C[C@@H]1CN([C@H](C)CO)C(=O)c2cccc(NC(=O)Nc3cccc4ccccc34)c2O[C@@H]1CN(C)Cc1ccc(C(F)(F)F)cc1
  Vaccinia inh: 35	Vaccinia inh Venus: 20
> C[C@H](CO)N1C[C@H](C)[C@H](CN(C)CC2CC2)Oc2ccc(NC(=O)CCN3CCOCC3)cc2CC1=O
  Vaccinia inh: 9	Vaccinia inh Venus: 0
> CCNC(=O)C[C@H]1CC[C@@H]2[C@H](COC[C@@H](O)CN2C(=O)Nc2c(C)noc2C)O1
  Vaccinia inh: 17	Vaccinia inh Venus: 6
> O=C(N[C@@H]1CC[C@H](CC(=O)N2CCc3ccccc3C2)O[C@@H]1CO)C1CC1
  Vaccinia inh: 11	Vaccinia inh Venus: 7

The list goes on:
SMILES	Vaccinia inh	Vaccinia inh Venus
C[C@H]1CN([C@@H](C)CO)S(=O)(=O)c2ccc(C#CC3CC3)cc2O[C@@H]1CN(C)C(=O)c1ccncc1	12	1
CO[C@H]1CN(C)C(=O)c2ccc(NC(=O)c3cnccn3)cc2OC[C@H](C)N(C(C)=O)C[C@H]1C	-5	-7
CO[C@H]1CN(C)C(=O)c2ccc(NC(=O)C3CCCC3)cc2OC[C@@H](C)NC[C@@H]1C	-2	1
CO[C@@H]1CN(C)C(=O)c2cc(NC(C)=O)ccc2OC[C@H](C)N(CC2CC2)C[C@H]1C	7	9
O=C(CC1CC1)Nc1ccc2c(c1)[C@@H]1C[C@H](CC(=O)NC3CCCCC3)O[C@H](CO)[C@@H]1O2	19	10
C[C@H]1CN([C@@H](C)CO)C(=O)c2cc(NC(=O)c3ccncc3)ccc2O[C@@H]1CN(C)S(=O)(=O)c1ccc(F)cc1	-8	-10
CN(C)C(=O)[C@@H]1[C@@H](CO)[C@@H]2Cn3c(ccc(-c4ccncc4)c3=O)[C@H]1N2C(=O)NC1CCCC1	29	16
COc1cccc(-c2ccc(C3[C@H]4CNC[C@@H]3N4Cc3nccs3)cc2)c1 (stereo not given in full)	-14	-12
COCC(=O)N1CC2(C1)CN(Cc1ccccc1F)[C@@H](CO)c1[nH]c3cc(OC)ccc3c12	23	15
COCCNC(=O)C[C@H]1C[C@H]2c3cc(N(C)C)ccc3O[C@H]2[C@@H](CO)O1	0	6
CN1CCN(C(=O)C[C@@H]2CC[C@@H]3[C@H](COC[C@H](O)CN3Cc3cccc(F)c3)O2)CC1	-10	2
C[C@@H]1CN([C@@H](C)CO)C(=O)c2cccc(NS(=O)(=O)c3cccs3)c2O[C@H]1CN(C)S(=O)(=O)c1ccc(F)cc1	19	13
COc1cccc(-c2cnc3c(c2)C(=O)N([C@H](C)CO)C[C@H](C)[C@H](CN(C)S(=O)(=O)c2ccc(C)cc2)O3)c1	-21	-16
Cc1ccc(S(=O)(=O)N(C)C[C@H]2OCCCC[C@@H](C)Oc3ccc(NC(=O)Nc4c(C)noc4C)cc3C(=O)N([C@H](C)CO)C[C@H]2C)cc1	-16	-18
C/C=C/c1ccc2c(c1)O[C@@H](CN(C)CC1CCOCC1)[C@@H](C)CN([C@@H](C)CO)S2(=O)=O	-16	-6
C[C@H](CO)N1C[C@H](C)[C@H](CN(C)C(=O)C2CCOCC2)Oc2ncc(C3=CCCCC3)cc2C1=O	18	7
CCC(=O)NC[C@H]1[C@H](c2ccc(-c3cccc(F)c3)cc2)[C@H](CO)N1C(=O)CC	-3	-4
C[C@@H]1CN([C@H](C)CO)C(=O)c2cc(C#CCN(C)C)cnc2O[C@@H]1CN(C)C(=O)c1cnccn1	15	7
O=C(c1cnccn1)N1CC2(C1)[C@@H](c1ccccc1)[C@@H](CO)N2C(=O)c1ccccc1	13	17
Cc1noc(C)c1S(=O)(=O)Nc1ccc2c(c1)C(=O)N([C@H](C)CO)C[C@@H](C)[C@H](CN(C)C(=O)NC(C)C)OCCCC[C@@H](C)O2	5	5
CNC[C@H]1Oc2ncc(Br)cc2C(=O)N([C@H](C)CO)C[C@H]1C	2	5
COCC(=O)Nc1ccc2c(c1)OC[C@H](C)N(C(=O)c1ccccc1)C[C@@H](C)[C@@H](OC)CN(C)C2=O	-1	2
CO[C@H](CN(C)S(=O)(=O)c1cccc(Cl)c1)[C@@H](C)CN(C(=O)Nc1ccccc1F)[C@H](C)CO	2	10
COCC(=O)Nc1ccc2c(c1)C(=O)N(C)C[C@H](OC)[C@@H](C)CN(Cc1ccccc1)[C@@H](C)CO2	-9	4
C[C@@H]1CN([C@@H](C)CO)C(=O)c2cc(C#CCN(C)C)cnc2O[C@@H]1CN(C)C(=O)Nc1ccccc1F	20	12
C[C@@H]1CCCCO[C@H](CN(C)C(=O)Nc2ccc(C(F)(F)F)cc2)[C@H](C)CN([C@H](C)CO)C(=O)c2cc(NS(C)(=O)=O)ccc2O1	u	x
C[C@H](CO)N1C[C@H](C)[C@@H](CN(C)Cc2ccccn2)Oc2cc(Br)ccc2S1(=O)=O	-2	-11
O=C(C[C@H]1CC[C@H]2[C@@H](COC[C@H](O)CN2C(=O)c2cnccn2)O1)NCc1ccc(Oc2ccccc2)cc1	-10	-7
C[C@H](CO)N1C[C@H](C)[C@H](CN(C)Cc2cncnc2)Oc2ncc(C#Cc3ccccn3)cc2C1=O	20	10
CC=Cc1ccc2n(c1=O)C[C@@H]1[C@@H](CO)[C@H](C(=O)NCCCN(C)C)N(Cc3cocn3)[C@H]21 (mixture of isomers)	12	13

Part of the list above, in CSV form:
Compound,Vaccinia inh,Vaccinia inh Venus
C[C@@H]1CN([C@H](C)CO)C(=O)c2cc(C#CCN(C)C)cnc2O[C@@H]1CN(C)C(=O)c1cnccn1,15,7
O=C(c1cnccn1)N1CC2(C1)[C@@H](c1ccccc1)[C@@H](CO)N2C(=O)c1ccccc1,13,17

Additional records follow:
SMILES	Vaccinia inh	Vaccinia inh Venus
C[C@H](CO)N1C[C@H](C)[C@H](CN(C)C(=O)c2ccc3c(c2)OCO3)Oc2cc(/C=C/c3ccccc3)ccc2S1(=O)=O	-34	-22
CC=Cc1ccc2n(c1=O)C[C@@H]1[C@@H](CO)[C@H](C(=O)NCCC)[C@H]2N1C(=O)C1CCC1 (mixture of isomers)	-4	-3
Cc1noc(C)c1NC(=O)Nc1ccc2c(c1)C(=O)N([C@H](C)CO)C[C@H](C)[C@H](CN(C)CC1CCCCC1)OCCCC[C@@H](C)O2	7	-3
CC(C)CC#Cc1cnc2c(c1)C(=O)N([C@@H](C)CO)C[C@H](C)[C@@H](CN(C)C(=O)Cc1ccccc1)O2	-22	-22
CN1[C@@H]2c3ccc(C4=CCCC4)c(=O)n3C[C@H]1[C@H](CO)[C@H]2C(=O)NC1Cc2ccccc2C1	9	6
CO[C@@H]1CN(C)C(=O)c2cc(NC(=O)C3CC3)ccc2OC[C@H](C)N(Cc2nccs2)C[C@H]1C	7	-1
C[C@@H]1CN([C@@H](C)CO)C(=O)Cc2cc(NC(=O)C3CC3)ccc2O[C@@H]1CN(C)Cc1ccc(C(=O)Nc2ccccc2N)cc1	-11	-10
CCCC#Cc1cnc2c(c1)C(=O)N([C@H](C)CO)C[C@H](C)[C@H](CN(C)C(=O)Nc1cc(F)ccc1F)O2	-4	-5
CC(C)CC#Cc1ccc2c(c1)O[C@@H](CN(C)C(=O)c1cccc(F)c1)[C@@H](C)CN([C@H](C)CO)S2(=O)=O	u	x
Cc1noc(C)c1NC(=O)Nc1ccc2c(c1)C(=O)N([C@@H](C)CO)C[C@@H](C)[C@@H](CN(C)C(=O)Nc1ccc(C(F)(F)F)cc1)OCCCC[C@@H](C)O2	8	5
COCc1cn(CC[C@@H]2CC[C@@H](NC(=O)Nc3c(C)noc3C)[C@@H](CO)O2)nn1	1	5
Cc1noc(C)c1NC(=O)N(C)C[C@@H]1OCc2cnnn2CCCC(=O)N([C@@H](C)CO)C[C@@H]1C	13	4
C[C@H](CO)N1C[C@H](C)[C@@H](CN(C)Cc2ccc3c(c2)OCO3)Oc2ccc(NC(=O)Nc3ccccc3)cc2CC1=O	u	x
CNC[C@@H]1Oc2ccc(NC(=O)Nc3ccc(C(F)(F)F)cc3)cc2CC(=O)N([C@@H](C)CO)C[C@H]1C	1	5
COc1ccc(CN(C)C[C@@H]2Oc3ccc(NC(=O)NC4CCCCC4)cc3C(=O)N([C@H](C)CO)C[C@H]2C)cc1	-3	-4
Cc1ccc(S(=O)(=O)N(C)C[C@H]2Oc3c(NC(=O)Nc4ccc5c(c4)OCO5)cccc3C(=O)N([C@H](C)CO)C[C@@H]2C)cc1	-10	-10
